High-throughput results deposited in PubChem by National Center for Advancing Translational Sciences (NCATS).
StopGo reporter: High Throughput Screening for Foot and Mouth Disease Virus Antivirals. human cells with a luciferase reporter of 2A StopGo recoding; control for the full effect not named in the record. Potency, µM (highest dose often 57.9 µM), without a hit: top-dose signal change, negative = less light. actives 1.2% (n = 410,000); active = well fitted falling curve with a large enough effect; inconclusive = small, poorly fitted or top-dose-only effect; inactive = no such curve, though single readings can be large or run the other way; tested in HEK293T cells; further: on the % scale 0 is the no-effect control and ±100 the full control effect; nearly all actives have a fitted effect of over 45% in size; luciferase light after 4 h
SARS PLP yeast: qHTS of Yeast-based Assay for SARS-CoV PLP | S. cerevisiae expressing SARS-CoV PLpro, growth rescue; control for the full effect not named in the record | Potency, µM (series often up to 32.9 µM), for the others: at the highest dose activity, positive = growth rescue | actives 0.19% (n = 330,000); active means well fitted rising curve with a large enough effect; inconclusive means small, poorly fitted or top-dose-only effect; inactive means no such curve, though single readings can be large or run the other way; further: 0% is about no effect; nearly all actives have a fitted effect of over 55% in size; growth read by luminescence after 48 h
Lassa entry inh: qHTS for Inhibitors of binding or entry into cells for Lassa Virus; Lassa virus pseudotype entry inhibition, cell reporter; control for the full effect not named in the record; Potency, µM (doses to about 37.9 µM), for the others: at the highest dose activity change, negative = inhibition, usual class: inhibitors; actives 1.2% (n = 300,000); AID 540256, 2011; active means well fitted inhibition curve with a large enough effect; inconclusive means small, poorly fitted or top-dose-only effect, or effect the other way; inactive means flat fitted curve, though single readings scatter; tested in HEK293 cells; further: on the % scale 0 is the no-effect control and ±100 the full control effect; nearly all actives have a fitted effect of over 50% in size; luciferase read-out
Marburg entry inh: qHTS for inhibitors of binding or entry into cells for Marburg Virus. Potency, µM (doses to about 37.8 µM), for the others: at the highest dose activity change, negative = inhibition, actives largely listed as inhibitors. actives 1.8% (n = 300,000). Marburg virus pseudotyped entry inhibition, cell reporter; control for the full effect not named in the record; about a third of the inactives were read at about 46 µM. AID 540276, 2011; active = well fitted inhibition curve with a large enough effect; inconclusive = small, poorly fitted or top-dose-only effect, or effect the other way; inactive = flat fitted curve, though single readings scatter; tested in HEK293 cells; about a fifth of its hits are not listed in these tables; further: on the % scale 0 is the no-effect control and ±100 the full control effect; luciferase read-out
Cruzain inh Det: qHTS Assay for Promiscuous and Specific Inhibitors of Cruzain (with detergent). Cruzipain (Trypanosoma cruzi), P25779. purified cruzain, Z-FR-AMC fluorescence, 0.01% Triton. Potency, µM, inactives show max response, negative = inhibition, most hits filed as inhibitors. actives 0.43% (n = 200,000);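 further: plate controls were neutral wells for no effect and buffer without enzyme for full effect; nearly all actives have a fitted effect of over 40% in size; top concentration of the series not given in the record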
Target sequence (P25779 123-467 limits assumed): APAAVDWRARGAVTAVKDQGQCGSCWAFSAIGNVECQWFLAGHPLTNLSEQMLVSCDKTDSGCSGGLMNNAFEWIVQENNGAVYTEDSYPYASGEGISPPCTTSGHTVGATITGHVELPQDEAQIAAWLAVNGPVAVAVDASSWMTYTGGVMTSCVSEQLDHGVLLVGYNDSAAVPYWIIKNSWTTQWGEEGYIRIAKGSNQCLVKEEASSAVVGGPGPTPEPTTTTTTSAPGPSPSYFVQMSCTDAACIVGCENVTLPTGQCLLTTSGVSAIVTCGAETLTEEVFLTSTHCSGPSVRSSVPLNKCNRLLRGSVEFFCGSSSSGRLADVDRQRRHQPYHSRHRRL
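Sodium acetate buffer (100 mM, pH 5.5) containing 5 mM DTT and 0.01% Triton X-100 hosted 1.5 nM cruzain and test compound for 15 min at room temperature. Cleavage of 2 uM Z-FR-AMC was then tracked by fluorescence.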
Cruzain inh noDet: qHTS Assay for Promiscuous and Specific Inhibitors of Cruzain (without detergent); purified cruzain, Z-FR-AMC fluorescence, no detergent; actives 2.3% (n = 200,000); Potency, µM, inactives show max response, negative = inhibition, usual class: inhibitors; Cruzipain (Trypanosoma cruzi), P25779;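 further: plate controls were enzyme without inhibitor for no effect and buffer without enzyme for full effect; nearly all actives have a fitted effect of over 40% in size; top concentration of the series not given in the record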
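Detergent-free condition (0.00005% Triton X-100) in acetate buffer pH 5.5 with DTT. 1.5 nM enzyme and compound were pre-mixed 15 min, then 2 uM Z-FR-AMC substrate added; reaction progress from fluorescence change between first and third reads (60 s).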
RE007 growth inh: qHTS Assay for Inhibitors of the HIV-1 protein Vpr; actives 0.21% (n = 360,000); Potency, µM (highest dose often 92.2 µM), for the others: top-dose activity change, negative = less growth; S. pombe RE007 Vpr strain, BacTiter-Glo ATP luminescence, 24 h; control for the full effect not named in the record; active = well fitted falling curve with a large enough effect; inconclusive = small, poorly fitted or top-dose-only effect; inactive = no such curve, though single readings can be large or run the other way;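 further: on the % scale 0 is the no-effect control and ±100 the full control effect; nearly all actives have a fitted effect of over 50% in size; the assay follows cell death caused by Vpr and the record does not say whether a fall means rescue or toxicity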
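Fission yeast RE007 carrying one integrated HIV-1 vpr copy, seeded at OD 0.01 in PMG+AL medium with 23 nL pinned compound. Grown 24 h at 30 degrees; viability read by BacTiter-Glo luminescence after 5 min.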
NS1 function inh: qHTS Assay for Inhibitors of Influenza NS1 Protein Function. S. cerevisiae slowed by influenza A NS1, growth recovery by OD600. Potency, µM (doses to about 46.1 µM), for the others: at the highest dose activity, positive = more growth. actives 0.4% (n = 270,000). AID 2326, 2010; active means well fitted rising curve with a large enough effect; inconclusive means small, poorly fitted or top-dose-only effect; inactive means no such curve, though single readings can be large or run the other way; further: nearly all actives have a fitted effect of over 50% in size
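Recovery from NS1-induced slow growth read by OD600 in budding yeast switched to galactose assay medium (pH 6.0, -URA) at 1:100 dilution. Compound 23 nl per well; the matching strain lacking NS1 serves as control.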
* = called active by the depositor; u = inconclusive; x = not tested or not shown; & = joins results of further samples; [ ] = another dose, or the depositor's remark. Unless noted, the call rests on the fitted dose curve; in most records, active means well fitted curve in the direction sought with a large enough effect; inconclusive means small, poorly fitted or top-dose-only effect, or another doubt; inactive means no such curve, though single readings can be large; an effect the other way counts as inactive or inconclusive. Potency means the concentration at half of the fitted maximal effect.

item | Structure | StopGo reporter | SARS PLP yeast | Lassa entry inh | Marburg entry inh
1 | Cc1nn(-c2ccccc2)c(C)c1/C=N/N1CCN(Cc2ccccc2)CC1 | x | x | -20% | -37%
2 | NC1=NC2(CCCCC2)N(c2ccc(F)cc2F)C(N)=N1 | -16% | 1% | 5% | 15%[46.1 µM]
3 | CC1(C(=O)NC2CCCCCCC2)CCC(=O)N1Cc1ccco1 (stereo unspecified) | 2% | -2% | -1% | 3%
4 | Cc1noc(C)c1COc1ccccc1C(=O)NCCc1ccc(Cl)cc1 | -2% | 5% | 10%[46.1 µM] | u
5 | COc1ccccc1NC(=S)N(Cc1ccco1)Cc1cc2ccc(C)c(C)c2[nH]c1=O | -22% | 13% | u | 11µM*
6 | CCN(CC(=O)NC(C)(C)C)C(=O)c1ccccc1SCC(=O)NC1CCCCCCC1 | -20% | x | 0% | -13%
7 | CCc1ccccc1NC1=NCC(=O)N1Cc1ccc2c(c1)OCO2 | -25% | -18% | 2% | -2%
8 | CCn1c(Cc2ccc(OC)cc2)nnc1SCC(=O)Nc1ccc(N2CCOCC2)cc1 | 16% | 1% | -2% | 15%[46.1 µM]
9 | CCc1nnc(NC(=O)C(c2ccccc2)c2ccccc2)s1 | -1% | -2% | 3% | -19%[46.1 µM]
10 | Cc1cc(C)cc(N(CC(=O)NC(C)(C)C)C(=O)CCC(=O)Nc2nccs2)c1 | -1% | -3% | x | x
11 | Cc1[nH]nc2c1C(c1ccco1)C(C#N)=C(N)O2 (stereo unspecified) | -18% | 2% | 6%[46.1 µM] | 0%[46.1 µM]
12 | O=C(C1CCN(S(=O)(=O)c2cccnc2)CC1)N1CCCCC1 | x | -4% | 17% | -8%

item | Cruzain inh Det | Cruzain inh noDet | RE007 growth inh | NS1 function inh
1 | -4.0% | 2% | x | x
2 | x | x | 18% | -7%
3 | 3.6% | 7% | -9% | -9%
4 | x | x | 8% | x
5 | -6.8% | -13% | 2% | u
6 | x | x | -7% | 21%
7 | -2.1% | -11% | -5% | -12%
8 | x | x | 10% | -26%
9 | x | x | 17% | 3%
10 | x | x | 3% | 12%
11 | x | x | -10% | x
12 | 3.7% | 9% | -8% | 6%

Further structures.
item | Structure | StopGo reporter | SARS PLP yeast | Lassa entry inh | Marburg entry inh
13 | CCOC(=O)/C(C#N)=C/c1c(N2CCN(c3ccccc3)CC2)nc2ccccn2c1=O | 8% | 2% | x | x
14 | CC1CN(Cc2nc3c(c(=O)n(C)c(=O)n3C)n2CC(O)CO)CC(C)O1 (stereo unspecified) | 6% | 0% | -5% | 7%
15 | c1csc(-c2ccnc3ncnn23)c1 | -17% | 1% | 3% | -4%
16 | CN1N=C(C(F)(F)F)CC1=O | -3% | 1% | 7% | 12%[46.1 µM]
17 | Cc1ccc(S(=O)(=O)CCC(=O)Nc2nc(C(C)(C)C)cs2)cc1 | -26% | 3% | x | x
18 | CC1CCCN(Cc2nc3c(c(=O)n(C)c(=O)n3C)n2Cc2ccc(Cl)cc2Cl)C1 (stereo unspecified) | -9% | x | 9%[46.1 µM] | 2%[46.1 µM]
19 | Cc1nnc2c3ccccc3ccn12 | -16% | x | 14% | 32%
20 | CC(C)c1ccc(S(=O)(=O)N2CCC(n3c(C(F)(F)F)nc4cccnc43)CC2)cc1 | -11% | x | -6%[46.1 µM] | x
21 | CCOc1ccc(CNC(=O)CCc2cn(Cc3ccccc3)c3ccccc23)cc1 | -7% | 15% | 9% | 6%
22 | CC(C)c1ccc(NC(=O)C2CCN(c3ncnc4c3nc3n4CCCCC3)CC2)cc1 | u | 3% | x | x
23 | O=C(Cc1ccc(Cl)cc1)NCC(=O)N1CCN(c2ccccc2)CC1 | -16% | -2% | -8% | -29%[46.1 µM]
24 | CCN(CC)S(=O)(=O)c1ccc2[nH]c(=O)cc(C(=O)Nc3ccc(C)cc3)c2c1 | -2% | -2% | u | -7%

item | Cruzain inh Det | Cruzain inh noDet | RE007 growth inh | NS1 function inh
13 | x | x | 6% | 3%
14 | 1.1% | 18% | 2% | 4%
15 | -13% | u | 9% | 6%
16 | x | x | -15% | x
17 | x | x | -1% | -10%
18 | -0.9% | -10% | x | x
19 | x | x | 1% | x
20 | 0.7% | -14% | x | x
21 | -4.0% | 2% | -19% | 11%
22 | x | x | -2% | 0%
23 | x | x | -15% | -16%
24 | x | x | 9% | x

Remaining list, next part:
item | Structure | StopGo reporter | SARS PLP yeast | Lassa entry inh | Marburg entry inh
25 | C=CCn1c(SCC(=O)N2CCCC2)nc2c([nH]c3ccccc32)c1=O | 3% | -5% | x | x
26 | CCc1ccc2oc(C(=O)Nc3nc(-c4ccccc4)ns3)c(C)c2c1 | -15% | x | -2%[46.1 µM] | -4%[46.1 µM]
27 | Cn1nnnc1SCc1nnc(-c2ccc(Cl)cc2)o1 | 21% | -8% | 8% | u
28 | CCCn1c(CC)nc([N+](=O)[O-])c1Sc1ccc(C)cc1 | u | -5% | -6% | -8%
29 | CC(C)(C)OC(=O)N[C@@H](Cc1ccccc1)c1nnc(SCC(N)=O)o1 | 0% | 1% | x | x
30 | O=C1CCCCCN1CSc1nc2ccccc2s1 | u | -3% | -1% | -7%
31 | Cc1ccc(C2CC2C(=O)NNC(=S)Nc2cccc(C)c2)cc1 (stereo unspecified) | 11% | 10µM* | u | 12%
32 | O=C(/C=C/c1ccc(-c2cccc([N+](=O)[O-])c2)o1)N1CCOCC1 | 63%[activator] | -1% | 1% | u
33 | CCOC(=O)C1CCCN(S(=O)(=O)c2cc(OCC(N)=O)c(C)cc2Cl)C1 (stereo unspecified) | -4% | 1% | -2% | 4%
34 | COc1ccccc1Nc1nc(N)nc(CCl)n1 | -4% | -1% | u | -5%[46.1 µM]
35 | COc1cc(C(C)=O)ccc1COc1ccc(C(=O)OCC(=O)NC(C)(C)C)cc1OC | 20µM* | 27% | u | u
36 | CCC(=O)Nc1nnc(S(=O)(=O)N(C)c2ccccc2)s1 | -6% | 1% | x | x

item | Cruzain inh Det | Cruzain inh noDet | RE007 growth inh | NS1 function inh
25 | x | x | 1% | -2%
26 | 1.3% | 4% | x | x
27 | 7.9% | 2% | 7% | 2%
28 | 3.3% | 5% | 12% | 1%
29 | x | x | -5% | 3%
30 | -8.7% | -9% | -9% | -4%
31 | -0.6% | -10% | 13% | -25%
32 | x | x | 2% | -8%
33 | -0.3% | 14% | 2% | -15%
34 | x | x | -3% | 6%
35 | -6.5% | u | -9% | -9%
36 | x | x | 10% | 2%

Next structures follow:
item | Structure | StopGo reporter | SARS PLP yeast | Lassa entry inh | Marburg entry inh
37 | O=C(OCc1cnc(Cl)s1)c1cccs1 | -3% | 0% | 11%[46.1 µM] | 14%[46.1 µM]
38 | CCOC(=O)c1sc2nc(CN3CCN(c4cccc(C(F)(F)F)c4)CC3)[nH]c(=O)c2c1C | 1% | -8% | 1% | -11%[46.1 µM]
39 | Cn1nc(C(=O)N2CCN(c3ccc([N+](=O)[O-])cc3)CC2)c2c1-c1ccccc1S(=O)(=O)C2 | -25% | 3% | x | x
40 | CN(C)c1ccc(CNC(=O)c2ccc(Cn3c(=O)c4cccn4c4cccnc43)cc2)cc1 | -12% | x | u | x
41 | O=C(Nc1ccc(S(=O)(=O)N2CCOCC2)cc1)c1cc(-c2cc(Cl)ccc2O)n[nH]1 | u | 0% | x | x
42 | CCCCCOCC1CC(C/C(C)=N/NC(N)=O)(C(=O)OCC)C(=O)O1 (stereo unspecified) | -8% | 0% | x | x
43 | O=[N+]([O-])c1ccc(-c2ccc(S(=O)(=O)N3CCOCC3)cc2)cc1 | -6% | -2% | x | x
44 | O=C(Nc1ccc2ccccc2c1)c1ccc(Cl)cc1Cl | -28% | 1% | x | x
45 | Cc1ccc(C)c(NC(=O)CSc2nncn2C)c1 | 2% | 2% | x | x
46 | COc1ccc(CNC(=O)COC(=O)/C=C/c2ccc(Cl)cc2)cc1 | -7% | 2% | 12% | -11%[46.1 µM]
47 | O=c1c2c3c(sc2n2cnnc2n1C1CCCCC1)CCC3 | x | -5% | x | x
48 | COc1cc(=O)oc(-c2ccccc2)c1C(C)=O | -12% | x | 27%[46.1 µM] | -7%[46.1 µM]

item | Cruzain inh Det | Cruzain inh noDet | RE007 growth inh | NS1 function inh
37 | x | x | -6% | -1%
38 | -8.2% | -8% | 20% | -3%
39 | x | x | -3% | 2%
40 | -1.0% | -5% | x | x
41 | x | x | 6% | -2%
42 | x | x | 2% | 4%
43 | x | x | 2% | 15%
44 | x | x | -13% | 5%
45 | x | x | -3% | 27%
46 | x | x | -6% | x
47 | 5.2% | 8% | x | 4%
48 | x | x | -2% | x

Continued.
item | Structure | StopGo reporter | SARS PLP yeast | Lassa entry inh | Marburg entry inh
49 | O=C(COc1ccccc1)Nc1ncn[nH]1 | 2% | 0% | x | 8%
50 | O=C(NC1CCCC1)C(c1ccc(N2CCOCC2)cc1)N(Cc1ccccc1)C(=O)c1ccco1 (stereo unspecified) | -1% | 4% | -14% | -14%&-14%
51 | O=C(CN1C(=O)c2ccccc2S1(=O)=O)c1cccc(Br)c1 | 10µM* | 1% | 1.3µM* | u
52 | Cc1cccc(-n2c(SCC(=O)NCc3ccco3)nc3ccccc3c2=O)c1 | -5% | -4% | 6% | u

item | Cruzain inh Det | Cruzain inh noDet | RE007 growth inh | NS1 function inh
49 | x | x | 12% | -2%
50 | 1.3% | 5% | 4% | -8%
51 | x | x | -2% | 18%
52 | -3.8% | -5% | 4% | -12%
